High-throughput results as filed in PubChem.
Cruzain inh Det – blocks cruzain activity in presence of Triton detergent | purified cruzain, Z-FR-AMC fluorescence, 0.01% Triton | AID 1478 | Potency, µM, for the others: max response, negative = inhibition, actives largely listed as inhibitors | P25779 | hit rate 0.43% among 200,000;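 note: plate controls were neutral wells for no effect and buffer without enzyme for full effect; nearly all actives have a fitted effect of over 40% in size; top concentration of the series not given in the record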
Target sequence (P25779 123-467 limits assumed): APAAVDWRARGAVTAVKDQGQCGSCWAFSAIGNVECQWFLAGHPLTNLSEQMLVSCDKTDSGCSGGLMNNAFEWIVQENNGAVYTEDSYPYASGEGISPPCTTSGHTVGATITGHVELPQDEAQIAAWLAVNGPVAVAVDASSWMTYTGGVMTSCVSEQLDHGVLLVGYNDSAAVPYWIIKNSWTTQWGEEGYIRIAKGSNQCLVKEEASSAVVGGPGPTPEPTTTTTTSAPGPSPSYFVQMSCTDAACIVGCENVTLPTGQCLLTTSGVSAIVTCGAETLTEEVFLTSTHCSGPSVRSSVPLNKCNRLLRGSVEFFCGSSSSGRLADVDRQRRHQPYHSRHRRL
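Enzyme 1.5 nM, Z-FR-AMC 2 uM, NaOAc 100 mM pH 5.5, DTT 5 mM, Triton X-100 0.01%; 15 min RT compound preincubation; kinetic ex360/em450, 60 s delta.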
Lassa entry inh – Lassa virus entry inhibition. Potency, µM (doses to about 37.9 µM), without a hit: top-dose activity change, negative = inhibition, hits mostly inhibitors. Lassa virus pseudotype entry inhibition, cell reporter; control for the full effect not named in the record. hit rate 1.2% among 300,000; active means well fitted inhibition curve with a large enough effect; inconclusive means small, poorly fitted or top-dose-only effect, or effect the other way; inactive means flat fitted curve, though single readings scatter; tested in HEK293 cells; note: % is set by controls: 0 for no effect and ±100 for the full control effect; nearly all actives have a fitted effect of over 50% in size; luciferase read-out
RE007 growth inh – less growth of the S. pombe RE007 Vpr strain | S. pombe RE007 Vpr strain, BacTiter-Glo ATP luminescence, 24 h; control for the full effect not named in the record | Potency, µM (titrated, usually from 92.2 µM), inactives show at the top dose activity change, negative = less growth | hit rate 0.21% among 360,000 | AID 651644; active = well fitted falling curve with a large enough effect; inconclusive = small, poorly fitted or top-dose-only effect; inactive = no such curve, though single readings can be large or run the other way;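 note: % is set by controls: 0 for no effect and ±100 for the full control effect; nearly all actives have a fitted effect of over 50% in size; the assay follows cell death caused by Vpr and the record does not say whether a fall means rescue or toxicity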
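Fission yeast RE007 carrying one integrated HIV-1 vpr copy, seeded at OD 0.01 in PMG+AL medium with 23 nL pinned compound. Grown 24 h at 30 degrees; viability read by BacTiter-Glo luminescence after 5 min.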
StopGo reporter – FMDV 2A StopGo reporter, luciferase signal; human cells with a luciferase reporter of 2A StopGo recoding; control for the full effect not named in the record; AID 1159524; Potency, µM (series often up to 57.9 µM), for the others: top-dose signal change, negative = less light; hit rate 1.2% among 410,000; active = well fitted falling curve with a large enough effect; inconclusive = small, poorly fitted or top-dose-only effect; inactive = no such curve, though single readings can be large or run the other way; tested in HEK293T cells; note: % is set by controls: 0 for no effect and ±100 for the full control effect; nearly all actives have a fitted effect of over 45% in size; luciferase light after 4 h
NS1 inh – inhibitors of influenza NS1 protein function; S. cerevisiae slowed by influenza A NS1, growth recovery by OD600; Potency, µM (series often up to 46.1 µM), inactives show at the top dose activity, positive = more growth; hit rate 0.4% among 270,000; active means well fitted rising curve with a large enough effect; inconclusive means small, poorly fitted or top-dose-only effect; inactive means no such curve, though single readings can be large or run the other way; note: nearly all actives have a fitted effect of over 50% in size
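OD600 was taken as the measure of yeast growth restored by compound in an NS1-expressing S. cerevisiae strain. Cells had been washed out of glucose medium and diluted 1:100 into galactose -URA medium, pH 6.0.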
Marburg entry inh – blocks Marburg virus binding to or entry into cells. Marburg virus pseudotyped entry inhibition, cell reporter; control for the full effect not named in the record; about a third of the inactives were read at about 46 µM. Potency, µM (highest dose often 37.8 µM), for the others: at the top dose activity change, negative = inhibition, most hits filed as inhibitors. hit rate 1.8% among 300,000; active = well fitted inhibition curve with a large enough effect; inconclusive = small, poorly fitted or top-dose-only effect, or effect the other way; inactive = flat fitted curve, though single readings scatter; tested in HEK293 cells; about a fifth of its hits are not listed in these tables; note: % is set by controls: 0 for no effect and ±100 for the full control effect; luciferase read-out
Cruzain noTriton – inhibitors of Trypanosoma cruzi cruzain without detergent; P25779; purified cruzain, Z-FR-AMC fluorescence, no detergent; Potency, µM, inactives show max response, negative = inhibition, actives largely listed as inhibitors; hit rate 2.3% among 200,000;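 note: plate controls were enzyme without inhibitor for no effect and buffer without enzyme for full effect; nearly all actives have a fitted effect of over 40% in size; top concentration of the series not given in the record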
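Detergent-free condition (0.00005% Triton X-100) in acetate buffer pH 5.5 with DTT. 1.5 nM enzyme and compound were pre-mixed 15 min, then 2 uM Z-FR-AMC substrate added; reaction progress from fluorescence change between first and third reads (60 s).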
SARS PLP yeast – inhibitors of SARS-CoV papain-like protease in yeast. hit rate 0.19% among 330,000. Potency, µM (top dose mostly 32.9 µM), without a hit: at the top dose activity, positive = growth rescue. S. cerevisiae expressing SARS-CoV PLpro, growth rescue; control for the full effect not named in the record. AID 485353; active means well fitted rising curve with a large enough effect; inconclusive means small, poorly fitted or top-dose-only effect; inactive means no such curve, though single readings can be large or run the other way; note: 0% is about no effect; nearly all actives have a fitted effect of over 55% in size; growth read by luminescence after 48 h
Starred values were filed as active, the others as inactive; ? = inconclusive; nt = no result given; & = joins results of further samples; [ ] = dose if it differs, or a comment. Unless noted, calls come from the whole dose curve; as a rule, active = well fitted curve in the direction sought with a large enough effect; inconclusive = small, poorly fitted or top-dose-only effect, or another doubt; inactive = no such curve, though single readings can be large; an effect the other way counts as inactive or inconclusive. Potency is the fitted concentration of half-maximal effect.

SMILES | Cruzain inh Det | Lassa entry inh | RE007 growth inh | StopGo reporter | NS1 inh | Marburg entry inh | Cruzain noTriton | SARS PLP yeast
CCOC(=O)C1C(=O)NC(c2ccccc2)=NC1c1ccc(Cl)cc1 (centres undefined) | 1.9% | 12% | 5% | 7% | 1% | -15% | 2% | 0%
Nc1cc(Cl)ccc1Oc1ccc(Cl)cc1 | -5.0% | 14%[14.3 µM] | ? | 8% | -28% | ? | -1% | -18%
C/C(=N\NC(=O)c1ccn(C)n1)c1cccc(NC(=O)c2ccc(C)s2)c1 | -4.2% | -13% | -6% | 19% | -17% | ? | 0% | -34%
O=C(O)CCc1ccc(-c2ccc(Cl)cc2)o1 | -4.7% | 12% | -11% | 27% | -151% | ? | -6% | -37%
CCOC(=O)CCC(NC(=O)CCCCC(=O)NC(CCC(=O)OCC)C(=O)OCC)C(=O)OCC (centres undefined) | -1.9% | 14% | -1% | -24% | -5% | 23% | -2% | -7%
Cc1ccccc1Nc1c(-c2cccc(N(C)C)c2)nc2ccc(Br)cn12 | -0.3% | 12%[46.1 µM] | nt | 35%[activator] | nt | 6%[46.1 µM] | 6% | nt
CC1CC(C)(C)CC2(C1)NC(=O)N(CC(=O)N1CCN(Cc3ccc(C#N)cc3)CC1)C2=O (centres undefined) | nt | ? | 6% | ? | nt | ? | nt | 4%
C=CCNC(=S)NNC(=O)c1csc(C)c1C | 6.2% | 8% | 6% | -2% | 0% | ? | -5% | 5%
CCc1cccc(CC)c1NC(=O)c1cccc(NC(=O)c2ccccc2)c1 | -1.7% | 21% | 11% | 0% | -8% | ? | -4% | -7%
Cc1cccc2sc(N(CCCN(C)C)C(=O)COc3ccc(Cl)cc3)nc12 | nt | -6%[46.1 µM] | -9% | -13% | nt | ? | nt | -3%
Cc1cc(NC(=O)c2cc(F)c(F)cc2Cl)no1 | -2.0% | -5% | 6% | 50%[activator] | 15% | ? | -5% | 7%
CN(C)CCNC(=O)C(=O)NCC(c1ccc2c(c1)OCO2)N1CCN(c2ccc(F)cc2)CC1 (centres undefined) | nt | ? | 6% | -6% | 4% | ? | nt | -5%
Fc1ccc2c(c1)/C(=N/Nc1ccccn1)CCS2 | nt | 0% | ? | -1% | nt | -14%[46.1 µM] | nt | 0%
O=C(COC(=O)c1cc(-c2cccc3ccccc23)nc2ccccc12)NC1CCS(=O)(=O)C1 (centres undefined) | -3.6% | 14% | -2% | -27% | -15% | -3% | ? | 13%
Cc1cc(C)nc(SCc2nnc(SCC(N)=O)n2Cc2ccco2)n1 | 6.9% | 3% | 0% | 21% | 27% | 0% | -5% | 0%
CCOC(=O)COc1cc2oc(=O)cc(C)c2cc1[N+](=O)[O-] | nt | nt | 0% | -17% | -1% | nt | nt | 1%
O=C(COC(=O)/C=C/c1cnc2ccccc2n1)NCC(F)(F)F | -8.0% | 5% | 8% | 7% | 0% | 10% | -6% | -7%
Cc1nc2ccn(Cc3cccs3)c(=O)c2cc1C(=O)N1CCN(c2ccc(F)cc2)CC1 | -1.7% | ? | nt | ? | nt | nt | 29% | nt
O=Cc1cccc(OC(=O)/C=C/c2ccco2)c1 | nt | nt | ? | 0% | -14% | nt | nt | 3%
CCn1cc(C(=O)O)c(=O)c2cnc(N3CCN(C(=S)Nc4ccccc4Cl)CC3)nc21 | nt | nt | 24% | ? | -2% | nt | nt | 0%
Cc1ccc(C(=O)NCCCN2CCOCC2)c(C)c1 | nt | 3% | 8% | 27% | 5% | 16% | nt | -2%
O=c1c2cccc(Cl)c2nc2n1Cc1ccccc1-2 | nt | ? | -11% | 52%[activator] | -4% | ? | nt | -1%
OC(CNCCc1ccc(Cl)cc1Cl)COc1ccccc1 (centres undefined) | nt | -26%[46.1 µM] | -17% | -12% | 2% | ? | nt | 0%
COc1cc(C(=O)OCC(=O)c2c[nH]c3ccccc23)ccc1OCC(=O)N1CCOCC1 | 0.4% | ? | 18% | -21% | 3% | -14% | ? | 2%
CC(=O)Nc1ccc(S(=O)(=O)N(C)CC(=O)N2CCN(C(=O)c3ccco3)CC2)cc1 | nt | -11%[46.1 µM] | 6% | -27% | nt | 2%[46.1 µM] | nt | 19%

8 compounds already listed, ordered by molecular weight, low to high.
SMILES | Cruzain inh Det | Lassa entry inh | RE007 growth inh | StopGo reporter | NS1 inh | Marburg entry inh | Cruzain noTriton | SARS PLP yeast
O=C(O)CCc1ccc(-c2ccc(Cl)cc2)o1 | -4.7% | 12% | -11% | 27% | -151% | ? | -6% | -37%
Nc1cc(Cl)ccc1Oc1ccc(Cl)cc1 | -5.0% | 14%[14.3 µM] | ? | 8% | -28% | ? | -1% | -18%
O=c1c2cccc(Cl)c2nc2n1Cc1ccccc1-2 | nt | ? | -11% | 52%[activator] | -4% | ? | nt | -1%
O=C(COC(=O)/C=C/c1cnc2ccccc2n1)NCC(F)(F)F | -8.0% | 5% | 8% | 7% | 0% | 10% | -6% | -7%
OC(CNCCc1ccc(Cl)cc1Cl)COc1ccccc1 (centres undefined) | nt | -26%[46.1 µM] | -17% | -12% | 2% | ? | nt | 0%
CCc1cccc(CC)c1NC(=O)c1cccc(NC(=O)c2ccccc2)c1 | -1.7% | 21% | 11% | 0% | -8% | ? | -4% | -7%
CC1CC(C)(C)CC2(C1)NC(=O)N(CC(=O)N1CCN(Cc3ccc(C#N)cc3)CC1)C2=O (centres undefined) | nt | ? | 6% | ? | nt | ? | nt | 4%
CCOC(=O)CCC(NC(=O)CCCCC(=O)NC(CCC(=O)OCC)C(=O)OCC)C(=O)OCC (centres undefined) | -1.9% | 14% | -1% | -24% | -5% | 23% | -2% | -7%

Remaining list, next part:
SMILES | Cruzain inh Det | Lassa entry inh | RE007 growth inh | StopGo reporter | NS1 inh | Marburg entry inh | Cruzain noTriton | SARS PLP yeast
CCCCN(CCCNC(=O)c1cc(Nc2ccc(OC)cc2)nc2ccccc12)Cc1ccccc1 | -1.5% | 26%[46.1 µM] | nt | -3% | nt | 8%[46.1 µM] | -1% | nt
Cc1nn(CCCC(=O)NCCc2ccc(Cl)cc2)c(=O)c2nn(-c3ccccc3)c(C)c12 | -0.2% | 2%[46.1 µM] | -3% | -13%&-17% | -2% | nt | 1% | 3%
O=C(CSc1nnc(Cc2cc(=O)[nH]c(=O)[nH]2)n1-c1ccccc1)N1CCCC1 | -0.5% | 6% | -2% | -6% | 0% | -1% | -1% | 0%
O=C(Nc1ccncc1)c1ccc(Cl)c(Cl)c1 | nt | 24%[46.1 µM] | -24% | -5% | -63% | ? | nt | -9%
Fc1ccccc1CNCCc1c[nH]c2ccccc12 | nt | 4%[46.1 µM] | -11% | 20% | ? | ? | nt | -1%
O=C(c1ccco1)N1CCN(S(=O)(=O)c2ccc3c(c2)CCN3C(=O)C2CC2)CC1 | 0.4% | ? | 3% | -9% | -14% | -12% | 25% | 6%
COC(=O)c1cc(N=C(N)N=C(N)N)cc(C(=O)OC)c1 | nt | nt | 5% | -5% | 1% | nt | nt | -2%
CN(C)NC(=O)c1cccc(Cl)c1 | nt | 6% | 22% | -7% | 0% | 3% | nt | 1%
Cc1ccc(S(=O)(=O)N(C)C)cc1NC(=O)CN1CCCC1 | nt | 12%[46.1 µM] | 10% | 30%[activator] | 3% | 5%[46.1 µM] | nt | -2%
CCN(Cc1ccccc1)c1ccc(/C=N/NS(=O)(=O)c2ccc(C)c([N+](=O)[O-])c2)cc1 | -3.5% | -5% | 5% | 5% | 16% | -9% | ? | ?
O=C(O)/C=C\c1ccccc1Oc1ccc(F)cc1 | nt | -1%[46.1 µM] | 12% | -13% | nt | 12%[46.1 µM] | nt | 0%
O=C(NCC(c1cccnc1)N1CCN(c2ccccc2F)CC1)OCc1ccccc1 (centres undefined) | -1.2% | ? | -9% | 0% | -31% | ? | -12% | -28%
CCc1ccc(-n2c(=O)c3c4c(sc3n(Cc3cc(=O)n5c(C)cccc5n3)c2=O)CCC4)cc1 | -3.1% | 13%[46.1 µM] | nt | 0% | nt | 4%[46.1 µM] | -12% | nt
Cc1[nH]c2ccccc2c1-c1csc(NC(=O)CN2CCOCC2)n1 | nt | 16% | -4% | -27% | 7% | 0%[46.1 µM] | nt | 0%
O=C(NC12CC3CC(CC(C3)C1)C2)c1ccc(-c2ccc(Cl)cc2)o1 | -9.4% | ? | -4% | 4% | -7% | ? | ? | 0%
Cc1ccccc1Cc1n[nH]c(=S)n1N | -1.8% | -4% | 114% | -14% | 6% | 4% | -12% | -5%
Cc1ccc(-n2[nH]c(C)c(/C=N/c3ccccn3)c2=O)cc1 | -12% | 9% | ? | nt | -5% | 1% | 5% | -20%
O=C(N/N=C/c1ccc(Cl)cc1)c1nc2ccc([N+](=O)[O-])cc2c(=O)[nH]1 | nt | nt | 2% | 8% | 2% | nt | nt | -1%
N=C1S/C(=C\c2ccccc2F)C(=O)N1c1ccc(F)cc1 | -3.2% | 7% | 5% | -1% | -1% | -8% | ? | -12%
CCOc1ccc(NC(=O)Cn2c(=O)n(Cc3ccccc3)c(=O)c3sc4ccccc4c32)cc1 | -0.9% | 0%[46.1 µM] | nt | -19% | nt | ? | -6% | nt
COc1ccc(NC(=O)c2nn(C)c3c2CS(=O)(=O)c2ccccc2-3)cc1 | nt | nt | -8% | 2% | -3% | nt | nt | -8%
COc1ccc(N/C=C/C(=O)C(F)(F)F)cc1 | -8.8% | -13% | nt | 12% | -10% | ? | -7% | -18%
COC(=O)c1cc(NC(=O)C2(S(=O)(=O)c3ccc(Cl)cc3)CC2)cc(C(=O)OC)c1 | -5.3% | 0% | 1% | -8% | 11µM* | -9% | ? | 7%
O=C(O)c1ccc(COc2ccc3ccccc3c2)o1 | nt | nt | -4% | -7% | 0% | nt | nt | -2%
O=C(CSc1nc2ccccc2c(=O)n1NC(=O)Cc1ccccc1)NCCc1ccccc1 | 6.8% | -6% | -11% | 23% | ? | -17% | 8% | 4%

Rows are unselected. About 4.7% of those tested had a hit in this group.
